Screening data (PubChem BioAssay)
DUX4 inh: inhibitors of DUX4-driven ZSCAN4 reporter expression, primary screen, 293T cells, Gaussia and Italica luciferase | AID 1224904, 2016 | activity change, negative = inhibition, % (concentration not given with the values) | 293T-iDUX4 ZSCAN4-Gaussia luciferase reporter, 24 h; hits give low values | actives 0.8% (n = 37,000);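 active = -10% or lower and over 25 points stronger than a control reporter; inconclusive = -10% or lower with a smaller gap; inactive = above -10%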;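 also: 0% = median of neutral control wells and -100% = median of positive control wells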
DUX4 inh difference: recorded beside DUX4 inh, whose call it bears; Gaussia minus Italica difference, %; measured here: selective DUX4 reporter inhibition;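 worked out from the two reporters; negative = selective loss of the DUX4 reporter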
DUX4 inh control: further read-out of DUX4 inh, marked with its call; activity change, negative = inhibition, %; measured here: Italica tet-on control reporter;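 0 = neutral control and -100 = positive control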
Active calls of the source: *; ? = inconclusive; . = no result given. The list is partial; count on the stated rates, not on these rows.

Below each compound – DUX4 inh	DUX4 inh difference	DUX4 inh control
> CCCNC(=O)N1CCC2(CC1)CN(C(=O)CCC)[C@@H](CO)c1[nH]c3cc(OC)ccc3c12
 : 21	5	16
> COc1cccc(NC(=O)N(C)C[C@@H]2OCc3cn(nn3)CCCC(=O)N([C@@H](C)CO)C[C@H]2C)c1
 : 2	1	1.8
> CCC(=O)N1C[C@@H](C)[C@H](OC)CN(C)C(=O)c2cc(NC(=O)NC3CCCC3)ccc2OC[C@H]1C
 : 7	9	-2.3
> Cc1noc(C)c1S(=O)(=O)Nc1ccc2c(c1)C(=O)N([C@H](C)CO)C[C@H](C)[C@@H](CN(C)C(=O)Nc1cccc3ccccc13)OCCCC[C@H](C)O2
 : 5	1	3.8
> CCNC(=O)[C@@H]1[C@@H](CO)[C@@H]2Cn3c(ccc(-c4ccccc4)c3=O)[C@@H]2N1Cc1cc(F)ccc1F
 : -6	0	-6.3
> COc1ccccc1-c1ccc([C@H]2[C@@H](CO)N3CCCCN(C(=O)c4cccnc4)C[C@@H]23)cc1
 : 1	3	-2.0
> COc1cccc(C#Cc2ccc([C@H]3[C@@H](CO)N4C(=O)CN(C(=O)c5ccccc5)C[C@@H]34)cc2)c1
 : ?	.	.
> CO[C@H]1CN(C)C(=O)c2ccc(NC(=O)Nc3ccc4c(c3)OCO4)cc2OC[C@H](C)NC[C@H]1C
 : -2	-10	8.3
> COc1ccc(C[C@H]2CCn3cc(nn3)COC[C@@H](c3ccccc3)NC2=O)cc1
 : -1	1	-1.5
> CCC(=O)N1CC2(CCN(S(C)(=O)=O)CC2)c2c(n(C)c3cc(OC)ccc23)[C@@H]1CO
 : 14	8	5.5
> CN1c2ccc(Br)cc2[C@H]2[C@H](CCN2S(=O)(=O)c2cccc(F)c2)[C@H]1CO
 : 7	-2	8.9
> CN(C)C(=O)[C@@H]1[C@@H](CO)[C@@H]2Cn3c(cccc3=O)[C@@H]2N1CCc1ccccc1
 : 0	0	0.3
> O=C(C[C@@H]1CC[C@H](NC(=O)Nc2ccc(C(F)(F)F)cc2)[C@H](CO)O1)NCc1cccc(F)c1
 : ?	.	.
> COc1ccc2c3c(n(C)c2c1)[C@H](CO)NCC31CN(S(=O)(=O)c2cccc(C)c2)C1
 : -2	1	-2.3
> COc1ccc(NC(=O)Nc2ccc3c(c2)[C@@H]2C[C@H](CC(=O)NCCc4ccccc4)O[C@@H](CO)[C@@H]2O3)cc1
 : ?	.	.
> CN(C)CC#Cc1ccc([C@H]2[C@@H](CO)N3C(=O)CN(C(=O)Cc4cccnc4)C[C@@H]23)cc1
 : 11	11	0.0
> CN(C)C(=O)c1ccc(-c2ccc([C@@H]3[C@@H](C#N)N(S(C)(=O)=O)[C@H]3CO)cc2)cc1
 : -1	-1	0.2
> O=C(C[C@H]1CC[C@@H]2[C@H](COC[C@H](O)CN2C(=O)c2cccnc2)O1)NCC1CC1
 : 4	-1	4.4
> O=C(C[C@H]1C=C[C@@H](NC(=O)C2CCOCC2)[C@@H](CO)O1)Nc1ccc(-c2ccccc2)cc1
 : 6	3	2.4
> COc1ccc2c3c([nH]c2c1)[C@H](CO)N(Cc1ccccc1F)CC31CCN(C)CC1
 : ?	.	.
> CCC(=O)Nc1ccc2c(c1)OC[C@H](C)N(C(=O)C1CC1)C[C@@H](C)[C@@H](OC)CN(C)C2=O
 : -1	-1	0.2
> O=C(Nc1ccccc1F)N1CCCCN2[C@H](CO)[C@@H](c3ccc(C#Cc4cccnc4)cc3)[C@H]2C1
 : -3	3	-5.9
> O=C(C[C@@H]1CC[C@H](NC(=O)c2ccc(F)cc2)[C@H](CO)O1)NCCc1ccccc1
 : 1	4	-3.2
> O=C(C1CC1)N1CC2(C1)[C@H](c1ccccc1)[C@@H](CO)N2CCC(F)(F)F
 : 19	15	4.3
> CO[C@H](CN(C)Cc1cc(F)ccc1F)[C@H](C)CN(C(=O)Nc1ccc(F)cc1)[C@@H](C)CO
 : -4	3	-7.8
> C[C@H](CO)N1C[C@H](C)[C@@H](CN(C)Cc2cccnc2)OCc2ccccc2-c2c(n(C)c3ccccc23)C1=O
 : -2	-5	2.8
> COCC(=O)Nc1ccc2c(c1)C(=O)N(C)[C@H]1CC[C@H](CC(=O)Nc3ccc(F)cc3)O[C@@H]1CO2
 : 2	3	-1.5
> Cc1noc(C)c1NC(=O)N1C[C@H](O)COC[C@@H]2O[C@H](CC(=O)NCC3CC3)CC[C@H]21
 : 9	-1	11
> C/C=C/c1ccc([C@@H]2[C@@H](CO)N[C@@H]2CN(CC(C)C)C(=O)c2ccccn2)cc1
 : 0	-1	0.4
> C[C@@H]1CN([C@H](C)CO)C(=O)c2ccccc2-c2ccccc2CO[C@@H]1CN(C)CC1CC1
 : -1	-3	2.1

Reprinted from the part before: 4 entries, followed by the next part.
Below each compound – DUX4 inh	DUX4 inh difference	DUX4 inh control
> COCC(=O)Nc1ccc2c(c1)C(=O)N(C)[C@H]1CC[C@H](CC(=O)Nc3ccc(F)cc3)O[C@@H]1CO2
 : 2	3	-1.5
> Cc1noc(C)c1NC(=O)N1C[C@H](O)COC[C@@H]2O[C@H](CC(=O)NCC3CC3)CC[C@H]21
 : 9	-1	11
> C/C=C/c1ccc([C@@H]2[C@@H](CO)N[C@@H]2CN(CC(C)C)C(=O)c2ccccn2)cc1
 : 0	-1	0.4
> C[C@@H]1CN([C@H](C)CO)C(=O)c2ccccc2-c2ccccc2CO[C@@H]1CN(C)CC1CC1
 : -1	-3	2.1
> CO[C@@H]1CN(C)C(=O)c2cc(NC(=O)c3ccno3)ccc2OC[C@@H](C)NC[C@@H]1C
 : -7	-13	6.6
> O=C(Nc1ccccc1)N1CCCCN2[C@H](CO)[C@H](c3ccc(C4=CCCCC4)cc3)[C@@H]2C1
 : ?	.	.
> Cc1noc(C)c1S(=O)(=O)N(C)C[C@H]1OCCCC[C@@H](C)Oc2ccc(NC(=O)Nc3cccc4ccccc34)cc2C(=O)N([C@@H](C)CO)C[C@@H]1C
 : -1	0	-0.6
> O=C(C[C@H]1C[C@@H]2c3cc(NC(=O)c4cccnc4)ccc3O[C@@H]2[C@H](CO)O1)NCc1cc(F)ccc1F
 : 2	2	-0.2
> COc1ccc2c3c([nH]c2c1)[C@@H](CO)N(Cc1ccccc1Cl)CC31CN(C(=O)C2CC2)C1
 : ?	.	.
> CO[C@@H](CN(C)Cc1cc(F)ccc1F)[C@@H](C)CN(C(=O)Nc1ccc(C(F)(F)F)cc1)[C@H](C)CO
 : -3	-7	3.4
> CN(C)C(=O)c1cccc(-c2ccc3c(c2)[C@H]2[C@H](CCN2C(=O)C2CCC2)[C@H](CO)N3)c1
 : ?	.	.
> O=C(Nc1ccc(C(F)(F)F)cc1)Nc1ccc2c(c1)[C@H]1C[C@@H](CC(=O)N3CCc4ccccc4C3)O[C@H](CO)[C@H]1O2
 : ?	.	.
> O=C(c1cnccn1)N1C[C@H]2[C@@H](c3ccccc31)[C@@H](CO)N2Cc1ccc2c(c1)OCO2
 : 0	-2	2.1
> CC(=O)N1CC(=O)N2[C@@H](CO)[C@H](c3ccc(C#CC(C)C)cc3)[C@@H]2C1
 : 14	5	9.0
> CNC(=O)C[C@@H]1CC[C@H]2[C@H](COc3ccc(NC(=O)c4cscn4)cc3C(=O)N2C)O1
 : 0	0	0.0
> O=C(Nc1ccccc1)N1C[C@@H]2[C@H](c3ccccc31)[C@H](CO)N2C(=O)c1cccnc1
 : 1	2	-1.5
> COCC(=O)N1C[C@@H]2[C@H](c3ccccc31)[C@H](CO)N2Cc1ccccc1
 : 4	1	3.2
> O=C(NC[C@H]1N[C@H](CO)[C@@H]1c1ccc(-c2cncnc2)cc1)C1CCC1
 : 0	0	-0.7
> N#C[C@@H]1N[C@@H](CO)[C@H]1c1ccc(C#CC2CCCC2)cc1
 : -3	-4	1.5
> CN(C)CC(=O)N[C@H]1C=C[C@H](CC(=O)NCCN2CCCCC2)O[C@H]1CO
 : -5	-5	0.0
> O=C(Nc1ccc2c(c1)[C@@H]1C[C@@H](CC(=O)N3CCc4ccccc4C3)O[C@@H](CO)[C@@H]1O2)C1CCOCC1
 : 9	5	4.0
> CNC[C@@H]1OCCCC[C@H](C)Oc2ccc(NC(=O)Nc3cccc4ccccc34)cc2C(=O)N([C@@H](C)CO)C[C@@H]1C
 : 0	-5	5.0
> CCCNC(=O)N1[C@@H]2CN(C)c3ccccc3[C@@H]2[C@@H]1CO
 : 0	1	-0.5
> CN1CCN(C(=O)C[C@H]2C[C@H]3c4cc(NC(=O)c5ccc6c(c5)OCO6)ccc4O[C@H]3[C@H](CO)O2)CC1
 : 2	3	-2.0
> Cc1cc(C(=O)Nc2ccc3c(c2)C(=O)N(C)[C@@H]2CC[C@@H](CC(=O)O)O[C@H]2CO3)no1
 : -1	-1	0.8
> O=C(NCc1ccccc1Cl)[C@@H]1[C@@H](CO)[C@@H]2Cn3c(cccc3=O)[C@@H]2N1C(=O)C1CCOCC1
 : 1	2	-0.9
> COC(=O)C[C@H]1C[C@H]2c3cc(NC(=O)CC4CC4)ccc3O[C@H]2[C@H](CO)O1
 : -2	-4	2.0
> CNC[C@H]1Oc2ccc(NS(=O)(=O)c3cccs3)cc2C(=O)N([C@@H](C)CO)C[C@H]1C
 : 7	8	-0.6
> CO[C@H]1CC[C@H]2CCN(C)C(=O)C[C@@H](c3ccccc3)CN(C)C(=O)c3cccc(C#N)c3OC[C@H]1O2
 : -1	-6	4.8
> CN(C)CCCNC(=O)C[C@@H]1C=C[C@@H](NC(=O)Cc2cccnc2)[C@H](CO)O1
 : 3	3	0.3
> Cc1noc(C)c1S(=O)(=O)N(C)C[C@@H]1Oc2ccc(NC(=O)Cn3cnnn3)cc2C(=O)N([C@@H](C)CO)C[C@@H]1C
 : 0	-1	1.0
> O=C(C[C@@H]1C[C@H]2c3cc(NC(=O)c4cccnc4)ccc3O[C@H]2[C@@H](CO)O1)NCc1cc(F)ccc1F
 : 4	5	-1.6
> CCCN1[C@@H]2c3ccc(-c4ccccc4)c(=O)n3C[C@@H]2[C@@H](CO)[C@@H]1C(=O)NCC(F)(F)F
 : 3	3	-0.3
> O=C(C[C@H]1C[C@H]2c3cc(NC(=O)Nc4ccccc4)ccc3O[C@H]2[C@@H](CO)O1)NCc1ccccc1
 : -3	7	-10
> Cc1ccccc1S(=O)(=O)N1C[C@H](O)COC[C@@H]2O[C@H](CC(=O)N3CCCCC3)CC[C@H]21
 : 0	-6	6.8
> COCC(=O)N1C[C@H]2[C@@H](c3ccccc31)[C@H](CO)N2Cc1ccccc1Cl
 : 3	0	3.1

Sorted by value in DUX4 inh (ascending): 4 of the compounds above.
SMILES | DUX4 inh
Cc1cc(C(=O)Nc2ccc3c(c2)C(=O)N(C)[C@@H]2CC[C@@H](CC(=O)O)O[C@H]2CO3)no1 | -1
CNC(=O)C[C@@H]1CC[C@H]2[C@H](COc3ccc(NC(=O)c4cscn4)cc3C(=O)N2C)O1 | 0
CN1CCN(C(=O)C[C@H]2C[C@H]3c4cc(NC(=O)c5ccc6c(c5)OCO6)ccc4O[C@H]3[C@H](CO)O2)CC1 | 2
O=C(C[C@@H]1C[C@H]2c3cc(NC(=O)c4cccnc4)ccc3O[C@H]2[C@@H](CO)O1)NCc1cc(F)ccc1F | 4

Pulled by structure from the list above:
Below each compound – DUX4 inh	DUX4 inh difference	DUX4 inh control
> O=C(C[C@@H]1C[C@H]2c3cc(NC(=O)c4cccnc4)ccc3O[C@H]2[C@@H](CO)O1)NCc1cc(F)ccc1F
 : 4	5	-1.6
> CCCN1[C@@H]2c3ccc(-c4ccccc4)c(=O)n3C[C@@H]2[C@@H](CO)[C@@H]1C(=O)NCC(F)(F)F
 : 3	3	-0.3
> Cc1noc(C)c1S(=O)(=O)N(C)C[C@H]1OCCCC[C@@H](C)Oc2ccc(NC(=O)Nc3cccc4ccccc34)cc2C(=O)N([C@@H](C)CO)C[C@@H]1C
 : -1	0	-0.6
> CNC[C@@H]1OCCCC[C@H](C)Oc2ccc(NC(=O)Nc3cccc4ccccc34)cc2C(=O)N([C@@H](C)CO)C[C@@H]1C
 : 0	-5	5.0
> O=C(NC[C@H]1N[C@H](CO)[C@@H]1c1ccc(-c2cncnc2)cc1)C1CCC1
 : 0	0	-0.7
> COC(=O)C[C@H]1C[C@H]2c3cc(NC(=O)CC4CC4)ccc3O[C@H]2[C@H](CO)O1
 : -2	-4	2.0
> CNC[C@H]1Oc2ccc(NS(=O)(=O)c3cccs3)cc2C(=O)N([C@@H](C)CO)C[C@H]1C
 : 7	8	-0.6
